Screening results: PubChem BioAssay, National Center for Advancing Translational Sciences (NCATS)
D2 PAM: positive allosteric modulators of human D2 dopamine receptor; P14416; DiscoveRx D2 beta-arrestin cells, luminescence, 90 min; 100% = 57 uM dopamine signal; potentiation, % (concentration not given with the values); 360,000 compounds, 0.23% hits; AID 624464; active = potentiation of 50% or more; inconclusive = 30% to 50%; inactive = 30% or less;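 also: tested on top of an EC20 dose of dopamine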
Target sequence (P14416 whole entry, looked up): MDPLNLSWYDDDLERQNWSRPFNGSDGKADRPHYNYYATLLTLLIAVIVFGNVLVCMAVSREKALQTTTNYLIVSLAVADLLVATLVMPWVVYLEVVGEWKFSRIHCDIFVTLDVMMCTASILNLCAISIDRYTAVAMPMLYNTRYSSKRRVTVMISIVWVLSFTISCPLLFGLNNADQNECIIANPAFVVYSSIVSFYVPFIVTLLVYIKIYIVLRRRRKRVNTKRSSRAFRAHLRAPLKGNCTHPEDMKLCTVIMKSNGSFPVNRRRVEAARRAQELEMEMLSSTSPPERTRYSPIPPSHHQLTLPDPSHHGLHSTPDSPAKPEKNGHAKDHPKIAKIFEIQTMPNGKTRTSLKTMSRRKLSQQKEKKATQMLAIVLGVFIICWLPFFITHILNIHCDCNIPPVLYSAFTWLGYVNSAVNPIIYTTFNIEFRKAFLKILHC
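PathHunter D2 cells, attached overnight at 37 deg C, received compound in DMSO plus dopamine at EC20 (50 nM final) for 90 min at 37 deg C. Beta-arrestin recruitment was read as luminescence after 1 h with detection reagent at ambient temperature.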
gsp ag: agonists of gsp mutant (McCune-Albright syndrome); Potency, µM (titrated, usually from 76.9 µM), for the others: at the highest dose activation (cAMP increase), hits mostly activators; gsp mutant cells, cAMP HTRF, 30 min; control for the full effect not named in the record; 340,000 compounds, 0.13% hits; active = well fitted activation curve with a large enough effect; inconclusive = small, poorly fitted or top-dose-only effect, or another doubt; inactive = no such curve, though single readings can be large or run the other way; cell line not stated here;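 also: phosphodiesterase inhibitor Ro 20-1724 added with compounds to block cAMP breakdown; potency is read from the fitted curve at half-maximal effect; nearly all actives have a fitted effect of over 60% in size; about a fifth of the inactives were tested at one dose only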
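Cells stably selected in G418 were plated at 2000/well, grown 16-24 hr, then given compounds in DMSO with the PDE inhibitor […] (300 uM solution added) for 30 min at 37C; cAMP was read by HTRF.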
D2 agonist: agonists of human D2 dopamine receptor (beta-arrestin) | P14416 | DiscoveRx PathHunter D2 beta-arrestin, luminescence, 90 min; 100% = 57 uM dopamine signal | activation, % (no concentration beside the values) | 360,000 compounds, 0.084% hits; in the data active = activation above about 40%; inconclusive = about 15% to 40%; inactive = below about 15%; also: compound concentration not given in the record; the text of the record calls up to 30% inactive
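Agonist mode: compounds alone added to overnight-plated D2 PathHunter cells for 90 min at 37 C, with 57 uM final dopamine (EC100) defining full response. Beta-arrestin recruitment detected by chemiluminescent reagent, read after 1 h at ambient temperature.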
Six1-Eya2 inh: blocks human Six1 binding to Eya2; Q15475+O00167; AlphaScreen GST-Six1/His-Eya2 binding, biochemical; hits give low values; control for the full effect not named in the record; activity change, % (concentration not given with the values); 360,000 compounds, 0.56% hits; AID 651725; in the data active = activity change below about -65%; inconclusive = about -30% to -65%; inactive = above about -30%; also: % is scaled to controls: 0 for no effect and ±100 for the full control effect
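Six1/Eya2 binding was read as AlphaScreen signal after compounds were pinned into GST-Six1 plus His-tagged Eya2 (5X stock 250/500 nM) in pH 8.0 Tris/NaCl/TCEP buffer, beads added, then incubated 1 h, 37 C, dark.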
CtBP-E1A inh: inhibitors of CtBP/E1A interaction; AlphaScreen GST-E1A/His-CtBP binding, 1536-well; hits give low values; control for the full effect not named in the record; activity change, % (test concentration not listed); 340,000 compounds, 0.49% hits; AID 651724; in the data active means activity change below about -65%; inconclusive means about -30% to -65%; inactive means above about -30%; also: % is scaled to controls: 0 for no effect and ±100 for the full control effect
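AlphaScreen with 125 nM GST-E1A and 125 nM His-CtBP (5X stocks) in Tris pH 8.0, 300 mM NaCl, BSA, Tween 20, TCEP. Compounds preincubated 2 h at 37 deg C, then glutathione donor/nickel acceptor beads added for 1 h at 37 deg C in dark.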
gsp antag: antagonists of gsp mutant (McCune-Albright syndrome). gsp-mutant cells, cAMP HTRF, 30 min; control for the full effect not named in the record. Potency, µM (series often up to 76.9 µM), for the others: top-dose activity change, negative = inhibition, usual class: inhibitors. 340,000 compounds, 0.4% hits; active = falling curve of any shape with a large fitted effect; inconclusive = falling curve, mostly with a smaller effect; inactive = flat or rising curve; cell line not stated here;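 also: intracellular cAMP measured with PDE inhibitor Ro 20-1724 present during compound exposure; potency is read from the fitted curve at half-maximal effect; % is scaled to controls: 0 for no effect and ±100 for the full control effect; nearly all actives have a fitted effect of over 65% in size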
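Cells in G418 medium, seeded 16-24 h, 37C; buffer exchange to DPBS + 1 mM CaCl2, 0.5 mM MgCl2, 0.05% BSA; cpds in DMSO + […] (300 uM stock), 30 min 37C; HTRF cAMP detection.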
Numbers without * were called inactive; ? = inconclusive; . = no result given; [ ] = remark or other dose.

SMILES	D2 PAM	gsp ag	D2 agonist	Six1-Eya2 inh	CtBP-E1A inh	gsp antag
COc1ccc(CCNC(=O)CCCCCN2C(=O)[C@@H]3Cc4ccccc4CN3C2=O)cc1OC	-6	-25%	-4.9	4	-1	-14%
Cn1cc(-c2nnnn2-c2cccc(C(F)(F)F)c2)c(C(F)(F)F)n1	-8	-1%	1.5	1	-3	-5%
O=C(/C=C/c1ccco1)OCC(=O)c1cccc([N+](=O)[O-])c1	-9	-10%[15.4 µM]	-3.0	2	0	8%
Cc1ccc(SCC(=O)OCC(=O)N(C)C2CCS(=O)(=O)C2)cc1C (stereo not drawn)	-1	-33%[inhibitor]	-1.6	6	.	4%
Cc1ccc(C(=O)N2CCN(c3cc4c(cc3[N+](=O)[O-])n(C)c(=O)n4C)CC2)cc1	-13	-18%	-3.6	-13	5	-15%
CCCCNC(=O)N1CCN(C(c2ccccc2)c2ccccc2)CC1	-10	-1%[15.4 µM]	-1.7	-6	-1	-13%
O=S(=O)(c1ccc(NC2CCCCC2)cc1)N1CCOCC1	-3	-36%[inhibitor]	-2.0	0	0	8%
Cc1nnc(NC(=O)CSc2ccc(-c3ccc(Cl)cc3)nn2)s1	-1	-6%[15.4 µM]	3.9	0	0	-27%
CC(C)(C)C(=O)N1CCC(O)(CS(=O)(=O)Cc2ccccc2)CC1	-8	14%[15.4 µM]	-2.2	8	40	-41%
COCCCNC(=O)CCCCCNS(=O)(=O)c1ccc(Br)cc1	-5	45%	-3.3	3	9	-4%
CCN(CC(=O)NC(C)C)C(=O)c1ccc(S(=O)(=O)N(C)c2ccccc2OC)cc1	-2	13%	0.1	4	-4	-10%
COc1ccc(Cl)cc1NC(=O)c1ccccc1C	-26	0%	-3.3	7	16	-8%
Cc1ccc(CNC2CCCCC2)s1	-5	-6%[15.4 µM]	-0.7	0	-7	5%
COc1ccc(OC)c(CNC(=O)CCn2c(=O)c3cccn3c3ccc(F)cc32)c1	-5	21%	-7.3	7	8	5%
Cc1[nH]c2ccccc2c1C(=O)C(=O)NCCc1c[nH]c2ccccc12	-2	3%	-3.1	-6	-7	-11%
O=C1C=C(NC2CC2)C2(CCCCC2)O1	-10	?	-2.6	1	0	?
Cc1ccc(-n2c3c(cc(C(=O)NCc4ccco4)c2=O)C(=O)CCC3)cc1	-3	-1%	-4.2	-4	.	-16%
C=CCN(CC=C)C(=O)C1CCC(C(=O)N(CC=C)CC=C)CC1 (stereo not drawn)	-23	-3%	2.6	2	3	-13%
N#CC1(NC(=O)COC(=O)/C=C/c2ccc3ccccc3n2)CCCCC1	-6	-22%	-8.5	-8	-24	23%
O=C1C=C(c2ccc(Cl)cc2)C(=O)N1Nc1ccccc1	-6	-2%	-2.8	2	-5	-7%[15.4 µM]
O=C(O)CSc1nnc(Cc2cccc3ccccc23)n1-c1cc(C(F)(F)F)cc(C(F)(F)F)c1	-8	-18%	-3.5	1	1	5%
O=Cc1cn(CC(=O)Nc2ccc3c(c2)OCO3)c2ccccc12	-5	1%[15.4 µM]	-1.1	4	.	-25%
CCOC(=O)C1=C(C)NC(=S)NC1c1ccc(-c2ccc(Cl)cc2)o1 (stereo not drawn)	-1	-2%	-1.7	-12	-24	-22%
O=C(CCC(=O)OCC(F)(F)C(F)F)NCc1ccccc1	-3	-31%	-2.0	-7	-7	6%
COc1ccc(C(=O)COC(=O)c2cccc(-n3cnnn3)c2)c(OC)c1	-20	-13%[15.4 µM]	-3.3	2	23	11%
CC(=O)c1cccc(NC(=O)c2cc(-c3cccs3)on2)c1	-13	?	-2.8	5	3	-23%
O=C(CCn1cnnn1)Nc1cccc(F)c1	4	-3%[15.4 µM]	2.5	7	-11	10%
Cc1ccc(OCCNS(=O)(=O)c2ccc(N3CCCC3=O)cc2)cc1C	1	-10%	0.6	-3	0	?
O=c1c2ccccc2c(-c2ccccc2)nn1-c1ccccn1	-3	-9%	2.8	-1	0	-2%
Cc1cc(C)c(C(=O)NC2CC(C)(C)Cc3c2cnn3-c2ccccc2)o1 (stereo not drawn)	-3	1%	1.4	-9	-4	-14%
CCCNCc1cc(OC)c(OCC(=O)Nc2ccccc2)cc1Br	1	13%	-0.6	4	7	7%
O=C(Nc1ccccc1N1CCOCC1)c1ccc(Cl)nc1	2	1%[15.4 µM]	1.4	-19	-9	-7%
CCN(CC)c1ccc(S(=O)(=O)N2CCOCC2)cc1NC(=O)CSC(=S)N1CCCC1	-2	1%	-7.3	-5	-3	-21%
CC(=O)c1c(C)[nH]c(C(=O)OCC(=O)Nc2ccc(C)cc2[N+](=O)[O-])c1C	-4	-18%	-0.9	?	0	?
O=C(CSc1nnc(C2CCCCC2)o1)Nc1ccccc1Cl	-1	-4%[15.4 µM]	-1.5	18	18	-12%
O=C(N/C(=C/C=C/c1ccccc1)C(=O)N1CCCCC1)c1ccc([N+](=O)[O-])cc1	4	14%	-1.9	-22	-18	-8%
CC1(C)C2CCC13CS(=O)(=O)NC3C2 (stereo not drawn)	-12	1%	-4.8	-1	-2	4%
COc1ccc(OCC(O)CNCCNc2nccc(C(F)(F)F)n2)cc1 (stereo not drawn)	-18	10%[15.4 µM]	-3.0	1	-1	4%
Cc1cnc(C(=O)OCc2nc3ccccc3o2)cn1	-6	6%	-0.4	1	0	11%
O=c1[nH]nnc2c1ncn2C1OC(CO)C(O)C1O (stereo not drawn)	0	.	-4.0	-3	-5	.
O=C(NCC(c1cccs1)N1CCOCC1)c1ccc(Br)o1 (stereo not drawn)	-15	-2%	-0.5	27	2	-6%
Cc1cc([N+](=O)[O-])ccc1NCc1ccccc1[N+](=O)[O-]	-5	-2%	0.3	-11	-10	4%
CCCC(=O)C1=C(O)C(C(=O)OC)C(C)(C)CC1=Nc1ccc(N)cc1 (stereo not drawn)	3	5%	-2.4	2	2	-13%
N#Cc1ccc(-c2ccc(OCC(=O)NCC(=O)Nc3ccc(F)c(F)c3F)cc2)cc1	-16	15%	2.6	-3	-20	-6%
CS(=O)(=O)N(CC(=O)N1CCCC1)C1CCCCC1	-12	1%	0.4	4	-1	.
CC(C)Oc1ccc(C(=O)NCC(=O)Nc2ccc3c(c2)CCC3)cc1	-1	?	-3.9	10	3	6%
O=C(Nc1ncccc1O)c1c(O)c2ccccc2[nH]c1=O	1	-14%	1.5	-8	.	-6%
CCc1ccccc1NC(=O)C1(S(=O)(=O)c2ccc(C)cc2)CC1	-7	0%	-3.1	21	7	-9%
COc1ccc(C(=O)OCC(=O)N2CCc3ccccc32)cc1S(=O)(=O)N1CCOCC1	-1	0%[15.4 µM]	0.8	-14	-6	2%
COc1ccc(-c2cc3ncnc(Cl)c3s2)cc1	4	29%	1.7	5	-5	4%
CCc1ccc2c(c1)C1(C(=O)N2)N2CCCC2C(C(=O)c2ccc3ccccc3c2)C12C(=O)Nc1ccccc12 (stereo not drawn)	-7	4%	-6.7	-16	4	-9%
COc1cccc(NC(=O)N(CCN(C)C)C(C)c2cccnc2)c1 (stereo not drawn)	1	?	-3.6	6	-1	7%
O=C(c1n[nH]c2ccccc12)N1CCOCC1	-5	-17%	0.3	8	.	-12%
Cc1c(-c2ccccc2)nc(N)c(C#N)c1-c1ccco1	2	-13%	-3.7	1	9	-2%
O=C(CSc1n[nH]c(-c2ccccc2)n1)N1CCOCC1	-6	-5%	-2.8	6	5	5%
Cc1c(N(C)S(=O)(=O)c2cccc(C(=O)NCC3CCCO3)c2)c(=O)n(-c2ccccc2)n1C (stereo not drawn)	-11	24%	3.3	10	0	5%
CN(C)C(=O)COC(=O)c1cccnc1Nc1ccccc1F	-20	-2%	-4.9	-7	-12	-4%
CCOC(=O)C1=C(C)N(C)C(C)=C(C(=O)OCC)C1c1ccsc1	8	0%[15.4 µM]	-6.4	-1	6	-14%
CCOC(=O)c1nc(N)c(C(=O)OCC)[nH]1	-7	30%	-3.7	-2	-4	7%
CC1CCN(C(C(=O)NC2CCCCC2)c2cc3c(cc2[N+](=O)[O-])OCO3)CC1 (stereo not drawn)	1	7%	-4.4	2	2	-3%
More results follow:
SMILES	D2 PAM	gsp ag	D2 agonist	Six1-Eya2 inh	CtBP-E1A inh	gsp antag
COc1ccc(CSCC(=O)NCCC(C)C)cc1	-5	-14%	-9.2	1	1	2%
COc1ccc(NC2=CC(c3cccc(OC)c3)N(c3ccc(OC)cc3)C2=O)cc1 (stereo not drawn)	-18	?	-2.2	-11	-18	-14%
Cc1cc(C)nc(SCC(=O)Nc2ccc(Br)cn2)n1	-4	?	-0.7	-4	3	-7%
CC(=O)Nc1ccc(S(=O)(=O)NCC2(N3CCOCC3)CCCCC2)cc1	9	9%	1.7	5	-20	11%
Cc1cc(Nc2nnnn2-c2ccccc2)n(-c2ccc(Cl)cc2)n1	-8	31%	-1.8	-1	-7	?
O=C(NCc1ccc(Cl)cc1)C1C2C=CC3(CN(Cc4cccnc4)C(=O)C13)O2 (stereo not drawn)	-7	9%	-0.5	-3	-7	6%
NC(=O)c1ccsc1NC(=O)c1ccc(N2CCCC2=O)cc1	-11	5%	0.9	-23	.	-17%
CC(=O)Nc1ccc(S(=O)(=O)Nc2cccc(C(=O)Nc3ccccc3C(=O)O)c2)cc1	7	9%	-1.9	?	?	-11%
CCCOc1ccc(C(O)C(CN2CCOCC2)c2ccccc2)cc1 (stereo not drawn)	-27	2%	3.2	1	1	0%
O=C(/C=C/c1ccc(Cl)cc1)Nc1ccccc1N1CCOCC1	3	19%	-1.1	-6	20	-29%
Cc1cc(C)c(C(=O)Cn2nc(C(=O)O)c3ccccc3c2=O)cc1C	0	11%[15.4 µM]	-3.0	-2	11	-1%
CN(C)S(=O)(=O)c1cccc(NC(=O)COC(=O)c2cc(-c3cccc(Br)c3)nc3ccccc23)c1	-20	-67%[inhibitor]	-2.0	-11	-9	-7%
Cc1ccc(S(=O)(=O)Nc2ccc3cn[nH]c3c2)cc1	-4	23%	-3.9	2	.	0%
O=C(CCc1ccccc1)Nc1ccc(NC(=O)c2ccco2)cc1	-15	-16%	2.1	-7	-18	-1%
O=C1NC(=S)N(c2cccc(Cl)c2)C12CCCCC2	-2	-50%[inhibitor]	-2.6	-2	-1	-11%
CCCn1c(N)c(C(=O)CSc2nnc(C)n2Cc2ccccc2)c(=O)n(C)c1=O	-17	-37%[inhibitor]	-2.0	-7	-6	-6%
